# Assay outcomes (PubChem BioAssay)
# Autofluor counter: compound fluorescence in toxin protease inhibitor counterscreen; compound autofluorescence counterscreen, microsphere flow cytometry; stronger effect = higher value; fluorescence intensity (no concentration beside the values); 360,000 tested, 3.1% active; AID 624483;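 active means at least 3 SD above the mean of all compounds, about 16000 in these data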;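 further: 100 nL of 1 mM stock went into each well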
# * marks the source's active call; other numbers are inactive results; & = joins results of further samples.
SMILES,Autofluor counter
O=C(CCC1CCCN(C(=O)c2cc(F)ccc2F)C1)N1CCN(c2ccccn2)CC1 (configuration not stated),3657
CC(C)C[C@H]1CN([C@@H](Cc2ccccc2)CN2CCCC2CN2C(=S)NC[C@@H]2Cc2ccccc2)C(=S)N1CC1CCCCC1 (some centres not stated),4512
O=C(COC(=O)C1CC1)Nc1cccc(Cl)c1,3484
Cc1cc(=O)c(C(=O)Nc2cccc(C(=O)NC3CC3)c2)nn1-c1ccccc1,3504
O=C(Nc1ccc(Cl)cn1)c1cccc(S(=O)(=O)N2CCCCCC2)c1,3780
CCOC1=C2[C@H](c3ccccc3)N(S(=O)(=O)c3ccc(C)cc3)C[C@H]2n2c(=O)n(-c3ccccc3)c(=O)n2C1,5958
OCc1ccccc1-c1cccc2nccn12,2850
O=C1C(Br)C2CCC1C2C(=O)O (configuration not stated),3364
CC1C(=O)N(Cc2cn(CCC3OCCCO3)nn2)CCS(=O)(=O)N1Cc1ccc(-c2ccncc2)cc1 (configuration not stated),2973
CC(C)NC(=O)N(C)C[C@H]1OCCCC[C@H](C)Oc2ccc(NS(=O)(=O)c3ccccc3)cc2C(=O)N([C@H](C)CO)C[C@H]1C,3812
NC(=O)c1nnn(Cc2cc(Cl)c(C(=O)c3ccc(Cl)cc3)c(Cl)c2)c1N,5965
C[C@@H]1O[C@H](CCc2cccc(Cl)c2)CC2=C1C(=O)OC(C)(C)O2,5213
O=C(NCCc1ccccc1F)c1cc(COc2ccc(F)cc2F)on1,3739
CCC(=O)N1CCC1(C)C(=O)Nc1ccc2scnc2c1 (configuration not stated),3699
CCN(CC)C(=O)C1=C(C)N(Cc2ccc(F)cc2)C(=O)C(CC(=O)NCCc2ccccn2)C1 (configuration not stated),2987
Nc1nc(-c2ccccc2Cl)cs1,2984
C[C@H](CO)N1C[C@H](C)[C@H](CN(C)C(=O)Nc2cccc(F)c2)Oc2cc(C#CC3(O)CCCC3)ccc2S1(=O)=O,3728
CCOC1=C2[C@@H](CN(S(=O)(=O)c3ccc(C)cc3)[C@H]2c2cccc3ccccc23)[C@H]2C(=O)N(c3ccccc3)C(=O)[C@H]2C1,6669
Cc1cccc(C(=O)NNC(=O)C2CCCCC2)c1O,3478
CC(=O)C1=CCC(c2ccccc2)N(S(=O)(=O)c2ccccc2C)C1 (configuration not stated),4113&5895

# Four of the compounds above, as tab-separated lines:
compound	Autofluor counter
CCOC1=C2[C@H](c3ccccc3)N(S(=O)(=O)c3ccc(C)cc3)C[C@H]2n2c(=O)n(-c3ccccc3)c(=O)n2C1	5958
CC(C)NC(=O)N(C)C[C@H]1OCCCC[C@H](C)Oc2ccc(NS(=O)(=O)c3ccccc3)cc2C(=O)N([C@H](C)CO)C[C@H]1C	3812
Cc1cccc(C(=O)NNC(=O)C2CCCCC2)c1O	3478
C[C@H](CO)N1C[C@H](C)[C@H](CN(C)C(=O)Nc2cccc(F)c2)Oc2cc(C#CC3(O)CCCC3)ccc2S1(=O)=O	3728

# (cont.)
SMILES,Autofluor counter
COc1ccc(NC(=O)Cn2nnc(-c3ccccc3)c2COc2ccc(C(C)=O)cc2)cn1,3838
CCOC(=O)C1(C)CCCCCN1C(=O)c1ccco1 (configuration not stated),3925
C[C@@H]1CN([C@@H](C)CO)C(=O)CCCn2nncc2CO[C@H]1CN(C)C,3369
CCOC(=O)C1=CCN(S(=O)(=O)c2ccccc2C)C1c1ccc(C)cc1 (configuration not stated),5523
COc1ccc(CNC(=O)CC[C@H]2O[C@@H](n3ccc(=O)[nH]c3=O)[C@H](O)[C@@H]2O)cc1,5903
COc1ccc(CNC(=O)C2CCC(=O)N(C3CCCCCC3)C2)c(OC)c1 (configuration not stated),4000
N#Cc1ccccc1NC(=O)C1CCCO1 (configuration not stated),3789
O=C(Nc1nnc([C@H]2C[C@H](O)[C@@H](CO)O2)s1)c1cccc(C(F)(F)F)c1,3744
N#Cc1ccc(C(=O)N2CCCCC2c2cc(C(=O)NCc3ccccc3)no2)cc1 (configuration not stated),3636
Cc1c(C(=O)NCc2ccc3c(c2)OCCO3)sc(=O)n1Cc1cccc(C(F)(F)F)c1,6041
COC(=O)c1ccc(Cn2c(C)c(C(=O)NCc3cccc(C(F)(F)F)c3)sc2=O)o1,5624
CC1(Oc2cccc(C#N)c2)CCN(Cc2csc3ccccc23)C1 (configuration not stated),3942
CCc1nc2ccc(C(=O)NCCCN3CCCC3=O)cn2c1N(C)C(=O)c1cccc(OC)c1,3870
CC(=O)C(Cc1ccccc1)NC(=O)COC(=O)c1cc(S(=O)(=O)N2CCOCC2)ccc1F (configuration not stated),4091
CCC/C=C/c1ccc(CN2C(CC(C)C)C(=O)N(Cc3cn(CCC4OCCO4)nn3)CCS2(=O)=O)cc1 (configuration not stated),3387
COC(=O)[C@]12CCCCC=C1N(Cc1ccco1)C(=O)[C@H](CC(=O)NCc1ccccc1)C2,6021
COc1cc(C(O)c2nc(-c3csc4ccccc34)cs2)ccc1F (configuration not stated),3594
NC(c1csc(NC(=O)Nc2cccc(C(F)(F)F)c2)n1)C1CCCCC1 (configuration not stated),2867
CCOC(=O)[C@]12CCCC=C1N(Cc1ccc3c(c1)OCO3)C(=O)[C@H](CC(=O)NCc1ccc(OC)c(OC)c1)C2,5777
Cc1c(C(=O)NCc2cccc(C(F)(F)F)c2)sc(=O)n1Cc1ccc(S(=O)(=O)N(C)C)cc1,4768
O=C(NCCc1ccccc1F)C1CC(=O)N(c2ccc3c(c2)OCCO3)C1 (configuration not stated),3581
CCc1cccc(NC(=O)COC(=O)CSc2ccc(C)cc2)c1,2864
CCc1nc2ccc(C(=O)NCc3ccccc3OC)cn2c1N(CC)CCOC,3048
Cc1cc(C)nc(Nc2nc(C(N)CCc3ccccc3)cs2)n1 (configuration not stated),3616
O=C(NC1CCCCC1)C1c2ccccc2OCC(=O)N1Cc1ccc2c(c1)OCO2 (configuration not stated),4587
CCc1nc2c(OCC(N)=O)cccn2c1N(C)C(=O)C(C)C,3860
CC(C)N(C)c1ncnc2c1ncn2[C@H]1CN(Cc2cccs2)C[C@@H](CO)O1,3653
Cc1cc(C)n(CCNC(=O)[C@H]2O[C@@H](n3ccc(N)nc3=O)[C@H](O)[C@@H]2O)n1,5918
Cc1cccc(C)c1-n1nnnc1C(c1ccnc2ccccc12)N1CCN(C/C=C/c2ccccc2)CC1 (configuration not stated),5878
CSc1ccccc1CNc1nc(NCC2CC2)nc2ccsc12,4104
CC(=O)NCCNc1nc(NCc2cccs2)nc2ccsc12,3744
COc1cccc(NC(=O)N(C)C[C@@H]2OCc3cnnn3CCCC(=O)N([C@@H](C)CO)C[C@H]2C)c1,4075
COc1ccc(N2CCN(C(=O)c3ccc(CS(=O)c4cccc(Cl)c4)o3)CC2)cc1 (configuration not stated),3086
OC(c1cccc(F)c1)c1ncc(-c2ccc(Oc3ccccc3)cc2)[nH]1 (configuration not stated),3916
Cc1cc(OCC(=O)Nc2nnc(C3CC3)s2)ccc1Cl,3491
Cc1ccccc1-c1cnc(C(O)c2ccc(F)cc2C)[nH]1 (configuration not stated),3927
CNC(=O)OCc1cocc1COC(=O)NC,6040
CC(C)C[C@@H]1O[C@H](CCc2ccccc2)Cc2[nH]c(=S)[nH]c(=O)c21,6166
O=C(Cc1ccccc1)NCC(=O)N1CCN(c2ccc(F)cc2)CC1,4001
COC(=O)c1ccc(CNC(=O)/C=C/[C@H]2O[C@@H](n3cc(C)c(=O)[nH]c3=O)C[C@@H]2O)cc1,5897
Cc1c(C(=O)NCc2ccc([N+](=O)[O-])cc2)sc(=O)n1Cc1ccc(-c2ccccc2)cc1,4019
O=C(OCc1ccccc1)N1CCC2CC1c1cc(/C=C/CCCSc3ncccn3)ccc12 (configuration not stated),3033
CC12CCC(/C(=C/NNc3ccc([N+](=O)[O-])cc3[N+](=O)[O-])C1=O)C2(C)C (configuration not stated),3633
O=C1c2cccc3cccc(c23)C(c2nc3ccccc3[nH]2)N1C1CC1 (configuration not stated),4513
CN1CCN(C2CN(Cc3cn(Cc4ccc(F)cc4)nn3)S(=O)(=O)C2)CC1 (configuration not stated),4273
CCCNC(=O)c1cc(C2CCCCN2S(=O)(=O)Cc2cccc(C(F)(F)F)c2)on1 (configuration not stated),3931
COc1ccc(N2C[C@H](CSC)[C@@H](CC(=O)Nc3ccccc3)C2=O)cc1,2881
CC1=CC2(C)NC(=O)C(C)C12 (configuration not stated),3810
COc1ccc(S(=O)(=O)NC(=O)C2(C)CCN2C(=O)COc2ccc(Cl)cc2)cc1 (configuration not stated),3837
COC(=O)[C@]12CCCCC=C1N(Cc1ccc(Cl)cc1Cl)C(=O)[C@H](CC(=O)NCc1cccc(C(F)(F)F)c1)C2,5356
Nc1ncnc2c1ncn2[C@@H]1O[C@H](C(=O)NCc2ccc(OC(F)(F)F)cc2)[C@@H](O)[C@H]1O,4222
C#CCN(C[C@@H]1[C@@H](OC(=O)NC2CC2)[C@@H](OC(=O)NC2CC2)Cn2c(=O)n(CCCCCC)c(=O)n21)S(=O)(=O)c1ccc(C)cc1,3265
COC(=O)[C@]12CCCCC=C1N(Cc1ccccc1)C(=O)[C@H](CC(=O)N1CCOCC1)C2,5854
COc1ccc(NC2CCCN(C(=O)C3=NNC(=O)CC3)C2)cc1 (configuration not stated),3428
COCC1CCN(C(=O)c2cc(COc3ccc(OC)cc3Cl)on2)C1 (configuration not stated),3635
C[C@@H]1CN([C@H](C)CO)S(=O)(=O)c2ccc(C#Cc3ccccc3)cc2O[C@@H]1CN(C)C(=O)CN(C)C,4376
Cc1ccc([C@H]2N[C@]3(CCCN(Cc4ccc(F)cc4)C3=O)[C@H]3C(=O)N(Cc4ccccc4)C(=O)[C@@H]23)cc1,3566
CCC(=NNc1ccc([N+](=O)[O-])cc1[N+](=O)[O-])c1ccccc1,6290
Cc1nc2ccc(C(=O)N(C)Cc3ccccc3)cn2c1N(C)C(=O)CCc1ccccc1,4036
NC(=O)C1CCN(C(=O)c2ccc(Cl)c(S(=O)(=O)N3CCc4ccccc43)c2)CC1,2843

# Next part:
SMILES,Autofluor counter
CCOC(=O)C1(C)CCN1C(=O)c1ccc(OC)c(OC)c1 (configuration not stated),3619
CN(c1ccc(Cl)cc1)c1cc2c(c3c1ccn3C)C1CCC2C1 (configuration not stated),5717
CC1(Oc2ccc(F)cc2)CCN(Cc2ccccc2OC(F)F)C1 (configuration not stated),3505
CC(=O)Nc1ccc(C(=O)N2CCOCC2c2cc(C(=O)NCc3ccccc3)no2)cc1 (configuration not stated),2969
CCCCNC(=O)C1(C)CCCCN1C(=O)c1oc2ccccc2c1C (configuration not stated),4020
N#CC1C(=O)NC(=O)C(C#N)C12CCCCC2 (configuration not stated),4166
COC(=O)[C@@]1(Cc2ccc(OC)cc2)[C@H]2c3cc(C(=O)N4CCCC4)n(Cc4ccccn4)c3C[C@H]2CN1C(=O)c1ccccc1,4151
COc1cccc(CNc2nc3cc(-c4ccc(C(=O)N5CCN(C)CC5)cc4)sc3c(=O)n2C)c1,3079
Cc1ccc(S(=O)(=O)/N=C2\C=C(NS(=O)(=O)c3ccc(C)cc3)C(=O)c3ccccc32)cc1,3574
CC1(C(=O)NS(=O)(=O)C2CC2)CCN(C(=O)c2cc(F)cc(F)c2)C1 (configuration not stated),3626
COc1ccc(CC(=O)N2CCC(C)(C(=O)NS(=O)(=O)C3CC3)C2)cc1OC (configuration not stated),3903
CC(C)c1cccc(-c2csc(C(O)c3ccccc3)n2)c1 (configuration not stated),3799
C[C@H](CO)N1C[C@H](C)[C@H](CN(C)C(=O)Nc2ccc(-c3cccs3)cc2)OCc2cnnn2CCCC1=O,2915
O=C(Nc1cccc2c1CCCC2)c1cc(C2CCCCN2S(=O)(=O)c2cccs2)on1 (configuration not stated),3966
Cc1ccc(C(=O)OCC(=O)Nc2ccc(C)c(S(=O)(=O)N3CCCCC3)c2)o1,4364
Cc1cccc(C)c1-n1nnnc1C1(C)CCC(=O)N1Cc1cccs1 (configuration not stated),4558
O=C(NCCO)OC1CC2CC1[C@H]1CCCCN1C2=O (some centres not stated),5863
CCOC(=O)C1=CCN(S(=O)(=O)c2ccccc2C)C1c1ccc(Br)cc1 (configuration not stated),5771
Cn1c(=O)c2c(ncn2CC(=O)O)n(C)c1=O,5398
CC(=O)Nc1cccc(-c2ccnc3c2CC(C(=O)NCc2cccc(Cl)c2)O3)c1 (configuration not stated),4040
O=C(Nc1ccc2c(c1)CN(C(=O)Nc1ccc(F)cc1)CC2)c1ccccn1,3593
Cc1cc(OCc2cc(C(=O)NC(C)c3cnn(C)c3)no2)cc(C)c1Cl (configuration not stated),3704
COc1ccc(N2CCN(C(c3ccccc3)c3nnnn3C(C)(C)C)CC2)cc1 (configuration not stated),4070
Cc1cc(=O)n2c(nc3ccccc32)s1,3969
Cc1ccc(C(=O)Nc2ccccc2C(=O)N2CC(C)OC(C)C2)cc1 (configuration not stated),4037
O=C(Nc1ccccc1)C1Cc2c(-c3ccccc3Oc3ccccc3)ccnc2O1 (configuration not stated),3455
O=C(Nc1nc(OCC(F)(F)F)cnc1/C=C\c1ccccc1)c1ccsc1,2749

# Grouped by structure, the compounds so far containing a Cl atom (14)
SMILES,Autofluor counter
O=C(COC(=O)C1CC1)Nc1cccc(Cl)c1,3484
O=C(Nc1ccc(Cl)cn1)c1cccc(S(=O)(=O)N2CCCCCC2)c1,3780
NC(=O)c1nnn(Cc2cc(Cl)c(C(=O)c3ccc(Cl)cc3)c(Cl)c2)c1N,5965
C[C@@H]1O[C@H](CCc2cccc(Cl)c2)CC2=C1C(=O)OC(C)(C)O2,5213
Nc1nc(-c2ccccc2Cl)cs1,2984
COc1ccc(N2CCN(C(=O)c3ccc(CS(=O)c4cccc(Cl)c4)o3)CC2)cc1 (configuration not stated),3086
Cc1cc(OCC(=O)Nc2nnc(C3CC3)s2)ccc1Cl,3491
COc1ccc(S(=O)(=O)NC(=O)C2(C)CCN2C(=O)COc2ccc(Cl)cc2)cc1 (configuration not stated),3837
COC(=O)[C@]12CCCCC=C1N(Cc1ccc(Cl)cc1Cl)C(=O)[C@H](CC(=O)NCc1cccc(C(F)(F)F)c1)C2,5356
COCC1CCN(C(=O)c2cc(COc3ccc(OC)cc3Cl)on2)C1 (configuration not stated),3635
NC(=O)C1CCN(C(=O)c2ccc(Cl)c(S(=O)(=O)N3CCc4ccccc43)c2)CC1,2843
CN(c1ccc(Cl)cc1)c1cc2c(c3c1ccn3C)C1CCC2C1 (configuration not stated),5717
CC(=O)Nc1cccc(-c2ccnc3c2CC(C(=O)NCc2cccc(Cl)c2)O3)c1 (configuration not stated),4040
Cc1cc(OCc2cc(C(=O)NC(C)c3cnn(C)c3)no2)cc(C)c1Cl (configuration not stated),3704

# An excerpt; the hit share may differ from the screen's.
